RE007 growth inh: less growth of the S. pombe RE007 Vpr strain. S. pombe RE007 Vpr strain, BacTiter-Glo ATP luminescence, 24 h; control for the full effect not named in the record. Potency, µM (doses to about 92.2 µM), for the others: top-dose activity change, negative = less growth. 360,000 tested, 0.21% active. AID 651644; active = well fitted falling curve with a large enough effect; inconclusive = small, poorly fitted or top-dose-only effect; inactive = no such curve, though single readings can be large or run the other way;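 further: on the % scale 0 is the no-effect control and ±100 the full control effect; nearly all actives have a fitted effect of over 50% in size; the assay follows cell death caused by Vpr and the record does not say whether a fall means rescue or toxicity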
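Fission yeast strain RE007, carrying one chromosomally integrated HIV-1 vpr copy, was seeded at OD 0.01 in PMG+AL medium with 23 nL pinned compound. After 24 h at 30 °C and 99% humidity, viability was read by BacTiter-Glo luminescence.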
2A StopGo: lowers the luciferase signal of an FMDV 2A StopGo reporter; human cells with a luciferase reporter of 2A StopGo recoding; control for the full effect not named in the record; Potency, µM (highest dose often 57.9 µM), without a hit: at the top dose signal change, negative = less light; 410,000 tested, 1.2% active; AID 1159524; active = well fitted falling curve with a large enough effect; inconclusive = small, poorly fitted or top-dose-only effect; inactive = no such curve, though single readings can be large or run the other way; tested in HEK293T cells; further: on the % scale 0 is the no-effect control and ±100 the full control effect; nearly all actives have a fitted effect of over 45% in size; luciferase light after 4 h
SARS PLpro yeast: inhibitors of SARS-CoV papain-like protease in yeast | S. cerevisiae expressing SARS-CoV PLpro, growth rescue; control for the full effect not named in the record | Potency, µM (highest dose often 32.9 µM), inactives show top-dose activity, positive = growth rescue | 330,000 tested, 0.19% active; active means well fitted rising curve with a large enough effect; inconclusive means small, poorly fitted or top-dose-only effect; inactive means no such curve, though single readings can be large or run the other way; further: 0% is about no effect; nearly all actives have a fitted effect of over 55% in size; growth read by luminescence after 48 h
* hit, by the source's call; ? = inconclusive; [ ] = dose if it differs, or a comment. Potency means the concentration at half of the fitted maximal effect. An excerpt (hit frequency here may not be typical).

Order of results – RE007 growth inh, SARS PLpro yeast, 2A StopGo
FC(F)(F)c1cccc(NCc2n[nH]c(=S)n2C2CCCCC2)c1
    36%, 12%, -36%
Cc1ccc(C(=O)OC(C)C(=O)NC(C)CCc2ccccc2)o1 (stereo not drawn)
    5%, 6%, 1%
COC(=O)C1=C(c2cccc(C#N)c2)C[C@@H]2CC[C@H]1N2C(=O)N1CCCCC1
    -6%, 1%, -29%
CN(C)C(=O)CCc1ccc2c3c([nH]c2c1)[C@]1(C)[C@@H](C(=O)N2CCOCC2)C[C@H](CC(=O)NCCCn2ccnc2)C(=O)N1CC3
    4%, -5%, -16%
O=C(NCc1ccncc1)c1cn(-c2ccccc2)nc1-c1cccnc1
    -4%, -1%, 13%
C=CCC1Cc2c(Br)cccc2C(CC=C)N1 (stereo not drawn)
    1%, -2%, -12%
CCOC(=O)Cc1csc(NC(=O)c2ccc(N3CCOCC3)cc2[N+](=O)[O-])n1
    -11%, -1%, 18µM*
Cc1nn(CC(=O)N(C)C2CCC(C)CC2)c(C)c1S(=O)(=O)N(C)C (stereo not drawn)
    3%, -2%, 0%
COC(=O)[C@]1(Cc2ccccc2)N[C@H](CN(C)C(=O)Nc2ccc(OC)cc2)[C@@H]2C(=O)N(Cc3ccccc3)C(=O)[C@@H]21
    13%, 0%, -13%
CC1(c2nnc(Cc3ccccc3)o2)CC(c2ccccc2F)=NO1 (stereo not drawn)
    -9%, -21%, 8%
Cc1ccc2nc(NC(=O)CCn3cccc3)sc2c1
    5%, 0%, 86%[activator]
Cc1cc(C(=O)CSc2nnnn2C)c(C)n1C1CC1
    10%, 1%, 49%[activator]
Cc1ccnn1-c1ccc(C(=O)N2CCCN(S(=O)(=O)c3ccc(F)cc3)CC2)cc1
    11%, -3%, -17%
CCOC(=O)N1CCN(C(=O)CSc2nc(C)nc3c2c(=O)n(C)c(=O)n3C)CC1
    -1%, 1%, -3%
CCN(c1ccccc1)S(=O)(=O)c1ccc(C(=O)N(C)Cc2cccs2)cc1
    -10%, -1%, -28%
C[C@]12c3[nH]c4ccc(Cl)cc4c3CCN1C(=O)[C@@H](CC(=O)NCCc1ccccn1)C[C@@H]2C(=O)N1CCOCC1
    3%, 5%, -15%
O=C(COC(=O)c1ccc([N+](=O)[O-])cc1)NCCC1=CCCCC1
    -20%, -1%, -13%
CCCNC(=O)C1(CC2CC(c3ccccc3)=NO2)CCN(C(=O)c2ccccc2)CC1 (stereo not drawn)
    0%, -1%, -2%
CC(C)OC(=O)/C(=C\c1cccnc1)NC(=O)c1ccccc1
    3%, -3%, -26%
CC(O)[C@@]1(O)CC[C@H]2[C@@H]3CC[C@H]4C[C@@H](O)CC[C@]4(C)C3=CC[C@@]21C (stereo partly drawn)
    -14%, -11%, -12%
CN(C(=O)c1ccc(NC(=O)Cc2ccc(NC(=O)C3CCCN(C(=O)CCc4ccccc4)C3)cc2)cc1)C1CC1 (stereo not drawn)
    21%, 2%, ?
CC(C)Cn1c(N)c(C(=O)COC(=O)c2cccc(F)c2)c(=O)n(C)c1=O
    6%, 0%, -22%
O=C(OCCOc1ccccc1)c1cc(S(=O)(=O)N2CCOCC2)ccc1Cl
    -8%, -2%, -17%
CCN1CCCc2cc(CN(CCN3CCOCC3)C(=S)Nc3ccccc3C)ccc21
    6%, 0%, -10%
N#Cc1ccc(C(=O)OCCc2cc3ccccc3c(=O)o2)cc1
    -2%, 3%, -17%
O=C(CSc1nc2ccccc2c(=O)n1Cc1ccc(F)cc1)NCC1CCCO1 (stereo not drawn)
    -1%, -1%, -5%
CSc1nc(N)nc2c1ncn2CC(=O)NCc1ccc2[nH]ccc2c1
    -19%, 1%, 0%
COc1ccccc1N(CCC#N)C(=O)COC(=O)CCC(=O)c1ccc(F)cc1
    2%, 1%, -8%
CCCn1c(N)c(N(CCOC)C(=O)CSc2c(Cl)cccc2Cl)c(=O)[nH]c1=O
    4%, -2%, -8%
O=C(Nc1ccc(C(F)(F)F)cc1)c1ccccc1
    -6%, 0%, 52%[activator]

The closing 6 entries of the part above lead into the next:
Order of results – RE007 growth inh, SARS PLpro yeast, 2A StopGo
N#Cc1ccc(C(=O)OCCc2cc3ccccc3c(=O)o2)cc1
    -2%, 3%, -17%
O=C(CSc1nc2ccccc2c(=O)n1Cc1ccc(F)cc1)NCC1CCCO1 (stereo not drawn)
    -1%, -1%, -5%
CSc1nc(N)nc2c1ncn2CC(=O)NCc1ccc2[nH]ccc2c1
    -19%, 1%, 0%
COc1ccccc1N(CCC#N)C(=O)COC(=O)CCC(=O)c1ccc(F)cc1
    2%, 1%, -8%
CCCn1c(N)c(N(CCOC)C(=O)CSc2c(Cl)cccc2Cl)c(=O)[nH]c1=O
    4%, -2%, -8%
O=C(Nc1ccc(C(F)(F)F)cc1)c1ccccc1
    -6%, 0%, 52%[activator]
O=C(Nc1cccc([N+](=O)[O-])c1)Nc1cccs1
    7%, -7%, 12%
Cc1ccc(CNC(=O)CCn2cc(-c3ccc(F)cc3)nc2-c2ccncc2)cc1
    3%, -12%, -12%
O=C(NCc1cccs1)c1nc(-c2cccs2)no1
    ?, 0%, 84%[activator]
C[C@H](CO)N1C[C@H](C)[C@@H](CN(C)C(=O)Nc2ccccc2)Oc2ccc(NC(=O)Cn3cnnn3)cc2C1=O
    8%, 1%, -4%
CCN(CC(=O)Nc1ccccc1OC)C(=O)c1ccc(NC(=O)c2cccs2)cc1
    -11%, -1%, -1%
COc1cccc(C(=O)Nc2sc3c(c2C#N)CCN(C(C)=O)C3)c1
    0%, -2%, -8%
Cc1cc(OCC(=O)OCC(=O)N2CCc3ccccc3C2)ccc1Cl
    -18%, -1%, -5%
Cc1nn(C2CCS(=O)(=O)C2)c(C)c1CN(C)C(=O)c1cccc(Cl)c1 (stereo not drawn)
    0%, 4%, -21%
O=c1cc(-c2ccc(O)c(O)c2)oc2cc(O)c([C@@H]3O[C@H](CO)[C@@H](O)[C@H](O)[C@H]3O)c(O)c12
    18%, 1%, 7%
O=S(=O)(c1ccc(SCc2ccccc2)nc1)N1CCCC1
    9%, -6%, 5%
CCC(CO)Oc1cc(NCc2ccccc2)c2ncn(C3CCCC3)c2c1 (stereo not drawn)
    22%, 1%, -13%
COc1ccc(NC(=O)Nc2ccc(N3CCOCC3)c3nonc23)c(OC)c1
    -6%, 0%, -6%
COc1ccc(NC(=O)c2ccc([N+](=O)[O-])s2)c([N+](=O)[O-])c1
    0%, 0%, 35%[activator]
O=C(COC(=O)CCN1C(=O)c2cccc([N+](=O)[O-])c2C1=O)NCc1ccccc1
    2%, 1%, 6%
Cc1[nH]c2ccc(C(=O)NC3CCCC3)cc2c1C
    -11%, 3%, 28%
COc1ccc(OC)c(S(=O)(=O)NC(C)c2ccc(-n3ccnc3)cc2)c1 (stereo not drawn)
    -3%, -5%, 15%
COc1ccccc1S(=O)(=O)NCc1ccc(C(=O)NC(C)c2ccccn2)cc1 (stereo not drawn)
    -15%, 1%, -2%
O=C(CNc1ccccc1F)Nc1cc(S(=O)(=O)N2CCCCC2)ccc1Cl
    -22%, 1%, -22%
O=C1CCC/C=C/C[C@@H](CC(=O)N(CCO)Cc2ccccc2)C(=O)NC[C@@H](c2ccccc2)O1
    10%, 6%, -18%
Cc1ccc(OCCNC(=O)CNC(=O)c2ccc(Cl)c([N+](=O)[O-])c2)cc1
    -10%, 1%, -16%
COc1cc(/C=C/C(=O)O)ccc1OS(=O)(=O)c1cc(Br)ccc1C
    -15%, 10µM*, -9%
CCCCCCSc1ccc(-c2nc3ccc(Cl)cn3c2NCc2ccccc2)cc1
    5%, 6%, ?
CCOc1ccc(NC(=O)CN(C)C(=O)CCNC(=O)c2ccco2)cc1OCC
    26%, 8%, 0%
CC(/C=C/C1[C@H](C)C[C@H](O[C@@H]2O[C@H](CO)[C@@H](O)[C@H](O)[C@H]2O)CC1(C)C)O[C@H]1O[C@H](CO)[C@@H](O)[C@H](O)[C@H]1O (stereo partly drawn)
    -5%, 3%, -16%
O=C1Cc2cc(S(=O)(=O)Nc3ccc(F)cc3Cl)ccc2N1
    -5%, -3%, 5%
N#Cc1cccnc1N1CCN(C(=O)c2cccc3c2C(=O)c2ccc(-c4ccc(F)cc4OCc4ccccc4)cc2S3(=O)=O)CC1
    10%, 3%, -17%
COc1ccc(C(=O)Nc2cc(=O)n(C)c(=O)n2C)cc1
    2%, 4%, 7%
Cc1cc(NC(=NC2CC2)c2ccccc2F)n(-c2ccccc2)n1
    -5%, 5%, -12%
CCC(C)(C)C1CCC(NC(=O)c2ccc(S(=O)(=O)N3CCOCC3)cc2)CC1 (stereo not drawn)
    19%, 0%, -13%
COc1ccccc1CNC(=O)COC(=O)c1ccc2c(=O)n3c(nc2c1)CCCCC3
    0%, 2%, -3%

Further structures follow:
Order of results – RE007 growth inh, SARS PLpro yeast, 2A StopGo
O=C(COC(=O)c1ccc2ccccc2n1)NC1CCCCC1
    5%, 6%, -16%
Cc1ccccc1NC(=O)C1=CC=CN2CCS(=O)(=O)N=C12
    0%, 11%, 60%[activator]
CC(C)CC(C(=O)NC1CCCCC1)N(Cc1cccs1)C(=O)c1snc(C(N)=O)c1N (stereo not drawn)
    13%, -4%, -34%
Cc1cc(Cn2nc(-c3ccccc3)cc2C(=O)NCc2cccs2)on1
    4%, -2%, 10%
O=C(Nc1ccccc1)c1nc[nH]c1C(=O)N1CCN(c2ccccc2)CC1
    -9%, 8%, 17%
CCc1noc(C)c1C(=O)NNC(=O)c1cc(OC)cc(OC)c1
    14%, -1%, -14%
CN(CC(=O)Nc1ccc(OC(F)(F)F)cc1)C(=O)/C=C/c1cc2c(cc1[N+](=O)[O-])OCO2
    8%, 2%, -21%
CCOc1ccc(NC(=O)CCN2C(=O)CSc3ccccc32)cc1
    19%, 4%, -12%
CN(C)CCNC(=O)/C=C/c1cn(-c2ccccc2)nc1-c1cc2ccccc2oc1=O
    1%, -1%, -10%
CCC1CCc2sc(C(=O)NNC(=S)NCC3CCCO3)cc2C1 (stereo not drawn)
    4%, 1%, -7%
O=C(/C=C/c1ccc([N+](=O)[O-])cc1)NCCc1ccc(F)cc1
    -5%, -2%, 19%
CCn1c(CCC(N)=O)nnc1SCC(=O)c1cc(C)n(C2CC2)c1C
    2%, -4%, -6%
COC(=O)C1=C(C)N(Cc2ccccc2)C(=NCc2ccco2)N[C@H]1c1cccc(F)c1
    -7%, 4%, -25%
Cc1nn(-c2ccccc2)c(Cl)c1C(=O)NCC1CCCO1 (stereo not drawn)
    8%, 2%, 5%
CC(=O)c1cccc(NC(=O)CSc2nc3ccccc3c(=O)n2CCCN2CCOCC2)c1
    -2%, 0%, -4%
COc1ccc(C(CNC(=O)c2ccco2)N2CCCC2)cc1 (stereo not drawn)
    4%, 6%, 36%[activator]
CC(C)CC1NC(=O)N(CC(=O)Nc2ccc(-c3ccccc3)cc2)C1=O (stereo not drawn)
    6%, -1%, -5%
O=C(CSc1nnc(NC2CC2)s1)Nc1ccc(N2CCOCC2)cc1
    -12%, -4%, -10%
COC(=O)[C@H](Cc1ccccc1)NC(=O)Cn1cnc2c(NCc3ccccc3)ncnc21
    7%, -2%, -20%
CC(CCN1C(N(C)C)=NC[C@@H]1C)c1ccccc1 (stereo partly drawn)
    -4%, -17%, -19%
O=[N+]([O-])c1ccc(COc2ccc(Br)cc2CN2CCOCC2)cc1
    0%, 0%, -24%
O=C(Cn1cnc2cc([N+](=O)[O-])ccc2c1=O)NC1CCS(=O)(=O)C1 (stereo not drawn)
    12%, 1%, -10%
CCc1ccccc1NC(=O)CN(C)C(=O)c1cccc(S(=O)(=O)N2CCCCCC2)c1
    -9%, 0%, -23%
CCn1c(C)cc(/C=C2/SC(=S)N(CC(=O)O)C2=O)c1C
    16%, 0%, 1%
CC(=O)C[C@@H](O)CC(=O)[C@@H]1OC(=O)[C@H](C)CCCCc2ccccc21
    3%, -3%, -6%
O=C(NCCO)c1nc(C(=O)c2ccccc2)c2ccccc2n1
    -11%, 7%, -17%
Cn1c(SCc2c(F)cccc2Cl)nc2ccccc2c1=O
    5%, 2%, -2%
Cc1ccc(S(=O)(=O)N(C)C)cc1-n1c(SCC(=O)N(C)C)nc2ccccc2c1=O
    -1%, -6%, -3%
Cc1nn(CC(=O)NC2CCC(C)CC2)c(C)c1[N+](=O)[O-] (stereo not drawn)
    7%, 3%, -27%
NC(=O)c1ccsc1NC(=O)COC(=O)Cc1ccccc1Cl
    10%, -6%, ?
